# Source: PubChem (National Center for Advancing Translational Sciences (NCATS))
# D2 ag – Beta-Arrestin HTS for Positive Allosteric Modulators of the Human D2 Dopamine Receptor: Agonists. D(2) dopamine receptor (Homo sapiens), P14416. DiscoveRx PathHunter D2 beta-arrestin, luminescence, 90 min; 100% = 57 uM dopamine signal. activation, % (test concentration not listed). hit rate 0.084% among 360,000; in the data active = activation above about 40%; inconclusive = about 15% to 40%; inactive = below about 15%; note: compound concentration not given in the record; the text of the record calls up to 30% inactive
# Target sequence (P14416 whole entry, looked up): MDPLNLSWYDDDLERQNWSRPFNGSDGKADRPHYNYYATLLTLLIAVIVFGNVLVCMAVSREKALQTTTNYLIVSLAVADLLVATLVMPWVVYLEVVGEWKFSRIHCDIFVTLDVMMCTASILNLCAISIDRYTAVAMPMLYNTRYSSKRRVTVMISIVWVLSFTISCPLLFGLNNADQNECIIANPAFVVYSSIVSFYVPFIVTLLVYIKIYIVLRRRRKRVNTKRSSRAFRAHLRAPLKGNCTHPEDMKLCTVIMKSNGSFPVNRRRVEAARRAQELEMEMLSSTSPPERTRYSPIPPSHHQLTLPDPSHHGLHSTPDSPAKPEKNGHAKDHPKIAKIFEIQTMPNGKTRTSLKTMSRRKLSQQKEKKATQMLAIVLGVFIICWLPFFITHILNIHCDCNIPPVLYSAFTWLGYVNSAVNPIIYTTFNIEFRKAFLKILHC
#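 Agonist mode: compounds alone added to overnight-plated D2 PathHunter cells for 90 min at 37 C, with 57 uM final dopamine (EC100) defining full response. Beta-arrestin recruitment detected by chemiluminescent reagent, read after 1 h at ambient temperature.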
# PINK1 expr mod – A Quantitative High throughput Screen to Identify Chemical Modulators of PINK1 Expression | PINK1 immunofluorescence, high-content cytometry, 24 h | AID 624263, 2012 | Potency, µM (highest dose often 76.6 µM), without a hit: at the top dose activation (PINK1 increase), hits mostly activators | hit rate 0.2% among 410,000; active = well fitted activation curve with a large enough effect; inconclusive = small, poorly fitted or top-dose-only effect; inactive = flat fitted curve, though single readings scatter; cell line not stated here;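 note: potency is the fitted concentration of half-maximal effect; % of control where 0% means no effect; nearly all actives have a fitted effect of over 65% in size; a mitochondrial uncoupler was the plate control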
#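 Readout is PINK1 immunofluorescence, quantified alongside mitochondrial, cell and nuclear markers by laser-scanning microplate cytometry. Cells from a stable line were exposed to compound titrations (5 concentrations) for 24 hours, with CCCP controls.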
# gsp antag – qHTS for Antagonists of gsp, the Etiologic Mutation Responsible for Fibrous Dysplasia/McCune-Albright Syndrome: qHTS | gsp-mutant cells, cAMP HTRF, 30 min; control for the full effect not named in the record | Potency, µM (titrated, usually from 76.9 µM), inactives show at the top dose activity change, negative = inhibition, usual class: inhibitors | hit rate 0.4% among 340,000 | AID 624288, 2012; active = falling curve of any shape with a large fitted effect; inconclusive = falling curve, mostly with a smaller effect; inactive = flat or rising curve; cell line not stated here;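 note: intracellular cAMP measured with PDE inhibitor Ro 20-1724 present during compound exposure; potency is the fitted concentration of half-maximal effect; % is set by controls: 0 for no effect and ±100 for the full control effect; nearly all actives have a fitted effect of over 65% in size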
#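 G418-selected cells were plated in DMEM/10% FBS for 16-24 h at 37C, then treated with compounds plus the PDE inhibitor […] (300 uM solution added) for 30 min at 37C. Intracellular cAMP was measured by HTRF after 30 min lysis at room temperature.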
# Sfp PPTase inh – qHTS Assay for Inhibitors of Bacillus subtilis Sfp phosphopantetheinyl transferase (PPTase) | hit rate 3.5% among 310,000 | Potency, µM, without a hit: max response, negative = inhibition, most hits filed as inhibitors | Biochemical Sfp PPTase activity, qHTS | AID 1490, 2009; active = well fitted inhibition curve with a large enough effect; inconclusive = small, poorly fitted or top-dose-only effect, or another doubt; inactive = no such curve, though single readings can be large or run the other way;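 note: the enzyme is Sfp with the accession as filed and its product quenches rhodamine fluorescence; potency is the fitted concentration of half-maximal effect; 0% = enzyme reaction without inhibitor and -100% = no enzyme wells; top concentration of the series not given in the record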
#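 Reaction rates are the 30-min fluorescence difference (ex 525, em 598 nm) in wells containing 15 nM Sfp, 5 uM rhodamine-CoA and 12.5 uM BHQ-2-YbbR at pH 7.6 with 10 mM MgCl2.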
# gsp ag – qHTS for Agonist of gsp, the Etiologic Mutation Responsible for Fibrous Dysplasia/McCune-Albright Syndrome: qHTS; gsp mutant cells, cAMP HTRF, 30 min; control for the full effect not named in the record; Potency, µM (series often up to 76.9 µM), inactives show at the top dose activation (cAMP increase), hits mostly activators; hit rate 0.13% among 340,000; AID 624287, 2012; active = well fitted activation curve with a large enough effect; inconclusive = small, poorly fitted or top-dose-only effect, or another doubt; inactive = no such curve, though single readings can be large or run the other way; cell line not stated here;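 note: phosphodiesterase inhibitor Ro 20-1724 added with compounds to block cAMP breakdown; potency is the fitted concentration of half-maximal effect; nearly all actives have a fitted effect of over 60% in size; about a fifth of the inactives were tested at one dose only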
#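 Cells stably selected in G418 were plated at 2000/well, grown 16-24 hr, then given compounds in DMSO with the PDE inhibitor […] (300 uM solution added) for 30 min at 37C; cAMP was read by HTRF.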
# ClpP mod – qHTS Assay for Activators of ClpP; purified B. subtilis ClpP, FRET peptide cleavage, 20 min; Potency, µM (titrated, usually from 57.5 µM), for the others: top-dose activity change, negative = active; hit rate 1.9% among 340,000; AID 651965, 2013; active = well fitted falling curve with a large enough effect; inconclusive = small, poorly fitted or top-dose-only effect; inactive = no such curve, though single readings can be large or run the other way; note: potency is the fitted concentration of half-maximal effect; the source files actives as falling curves though it sought activators and does not explain the sign; nearly all actives have a fitted effect of over 65% in size; many hits overshoot -100%
# Target sequence (P80244 whole entry, looked up): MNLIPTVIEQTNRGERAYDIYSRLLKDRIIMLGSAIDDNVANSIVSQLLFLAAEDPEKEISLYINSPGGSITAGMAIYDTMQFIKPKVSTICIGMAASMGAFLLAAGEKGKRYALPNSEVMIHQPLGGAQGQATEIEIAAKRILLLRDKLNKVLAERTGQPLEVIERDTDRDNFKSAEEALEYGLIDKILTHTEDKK
#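 Purified B. subtilis ClpP, 10 microg/mL final in Tris/HCl pH8 with KCl, BSA, glycerol and Tween-20, cleaved an Abz/nitrotyrosine-quenched decapeptide. Fluorescence (ex 320, em 430) was read at 0 and 20 min at room temperature. Delta was normalized to 5.8 microM ADEP and DMSO/no-enzyme controls.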
# Menin MLL FP FL – qHTS Assay for Inhibitors Targeting the Menin-MLL Interaction in MLL Related Leukemias: Competition With Fluorescein Labeled MLL-derived Peptide | Fluorescence polarization, fluorescein-MLL peptide displacement from menin | AID 1766, 2009 | FP activity change, % at 61.4 µM | 290,000 tested, under 10 active; inconclusive = falling polarisation curve, or a change in total fluorescence; inactive = total fluorescence flat and polarisation flat or rising; no compound was filed as active; the % refers to the polarisation; negative = inhibition;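 note: % of control where 0% means no effect; inhibitors lower the polarisation; unlabelled MLL peptide was the positive control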
# The depositor's hits bear a star; ? = inconclusive; / = no result given; [ ] = another dose, or the depositor's remark. The order is random; about 5.1% have a hit in one of these screens.
compound	PINK1 expr mod	gsp antag	D2 ag	Menin MLL FP FL	gsp ag	Sfp PPTase inh	ClpP mod
Cc1ccc(C)c(OCCC(=O)OCC(=O)c2ccc3c(c2)NC(=O)CO3)c1	11%	3%	4.5	/	-5%	/	-2.4%
C#CCNC(=O)C1=C[C@@H](C2CCCCC2)C[C@@H](OCCCCO)O1	-0.4%	-4%	-4.8	9.6	?	-11%	-3.4%
O=Cc1ccc(OCC(=O)NCC2CCCO2)cc1 (stereo not drawn)	-1.8%	3%	-5.5	-8.5	1%	2%	/
CN(C)C(=O)NC(NC(=S)Nc1ccccc1)C(Cl)(Cl)Cl (stereo not drawn)	1.9%	9%	-17	0.6	-30%[inhibitor]	56µM*	1.1%
O=c1cc(-c2ccccc2)c2ccccc2[nH]1	-0.6%	8%	-1.2	5.0	-43%[inhibitor]	-4%	-20%
Cc1c(NC(=O)c2ccccc2N)cccc1C(=O)O	-1.9%	12%	0.4	4.9	0%	-5%	-21%
CC(=O)C1=C(c2ccccc2)NC(=O)NC1c1ccc2c(c1)OCO2 (stereo not drawn)	-0.6%	8%	4.5	0.2	-18%[15.4 µM]	2%	-19%
Cc1c(C(=O)Nc2c(F)cccc2F)sc2ncn(CC(=O)N3CCCCC3)c(=O)c12	-0.6%	-3%	-5.8	-1.3	-57%[inhibitor]	-7%	-2.1%
NS(=O)(=O)c1ccc(N/N=C/c2cn(-c3ccccc3)nc2-c2cccs2)c([N+](=O)[O-])c1	-2.0%	-13%	-4.7	-0.2	-8%[15.4 µM]	3%	/
COCCn1c(SCC(=O)Nc2cccc(NC(C)=O)c2)nc2c([nH]c3ccccc32)c1=O	1.6%	-2%	-3.4	/	16%[15.4 µM]	-10%	-24%
CSc1nc(O)c(C(c2ccccc2)c2c(O)nc(SC)[nH]c2=O)c(=O)[nH]1	5.2%	6%	-0.4	3.6	18%	-16%	0.3%
Cc1ccccc1NC(=O)CCN1C(=O)c2ccccc2C1=O	-0.4%	7%	-1.9	-1.1	-11%[15.4 µM]	18%	1.8%
Cc1ccc2nc(-c3ccccc3)c(Cc3ccccc3C(F)(F)F)n2c1	8.7%	/	-3.4	/	/	/	4.6%
CCCCCn1c(SCC(=O)c2ccccc2)nc2cc(C(=O)NCc3ccco3)ccc2c1=O	43%[38.3 µM]	10%	-0.8	3.9	-11%	5%	-3.0%
O=C(Nc1ccc(F)cc1)c1ccc(Cn2cnnn2)cc1	3.5%	7%	-1.7	0.8	-6%[15.4 µM]	10%	/
Cc1ccccc1NC(=O)N1CCCN(c2ccc(C#N)cn2)CC1	-2.1%	1%	2.2	-0.4	16%[15.4 µM]	17%	-0.1%
CCCOc1ccc(CNC(=S)NCc2ccc(OC(C)C)cc2)cc1	11%	-8%	-5.9	6.5	3%	6%	1.5%
COc1ccc(Nc2nc(C)cc(=O)[nH]2)cc1	0.9%	-2%	-3.8	0.9	-13%	-25%	-0.8%
CCOc1ccc(N2C(=O)CC(SC(=NC)Nc3cccc(F)c3)C2=O)cc1 (stereo not drawn)	6.8%	-2%	-3.4	3.7	-14%	10%	0.1%
CCCOc1ccc(N2CC(C(=O)NCCc3ccc(OC)c(OC)c3)CC2=O)cc1 (stereo not drawn)	3.1%	4%	-9.6	-2.0	-2%[15.4 µM]	10%	0.8%
CC1(C)OCC(C2CC(c3ccccc3)NS(=O)(=O)O2)O1 (stereo not drawn)	-0.5%	-2%	-1.4	-2.4	1%	9%	-0.3%
Nc1[nH]n2c(=O)cc(-c3ccccc3)nc2c1N=Nc1ccc(S(N)(=O)=O)cc1	1.1%	-14%	-10	5.3	-5%[15.4 µM]	3%	/
Cc1c(-c2cc(C(=O)O)c3ccccc3n2)cnn1C	-0.7%	-8%	-7.4	-1.2	-21%	13%	3.6%
CCCCN1C(=S)NC[C@@H]1Cc1ccc(O)cc1	-0.9%	5%	1.4	3.3	12%	10%	0.4%
CCOCCCNC(=O)CN1C(=O)COc2ccc(S(=O)(=O)N3CC(C)CC(C)C3)cc21 (stereo not drawn)	1.2%	-3%	-1.4	/	2%	9%	0.6%
CN(C)CCOCCOc1ccc(Cl)cc1Br	-0.5%	8%	-5.3	2.5	-4%	-30%	0.3%
CC(C)n1nc(C(=O)NCCCN2CCCC2=O)c2ccccc2c1=O	-0.2%	2%	-0.7	/	-21%	9%	-17%
COc1ccccc1C(=O)Nc1ccc2c(c1)nc1n2CCN(C2CCCCC2)C1	6.3%	?	1.3	16	-23%	-5%	-21%
CCOc1ccccc1C(=O)N1CCN=C1SC	-2.3%	12%	-2.9	1.6	12%	13%	-0.4%
CCCNC(=O)C1(CC2CC(c3ccccc3)=NO2)CCNCC1 (stereo not drawn)	-0.3%	5%	-2.8	/	/	/	2.4%
CC(C)(C)N(Cc1ccccc1)C(=O)c1cc2ccccc2o1	4.2%	-22%	-2.6	9.2	2%	0%	-0.4%
CCn1nnc(-c2ccccc2NS(=O)(=O)c2ccc(C(=O)OC)cc2)n1	?	-13%	6.0	1.6	-9%	-9%	-1.8%
NS(=O)(=O)c1cccc(NC(=O)CC2(CC(=O)O)CCCC2)c1	0.2%	15%	0.4	-10	-6%	-5%	/
O=C(NCc1ccco1)c1cnn2c(C(F)(F)F)cc(-c3cccs3)nc12	12%	-1%	-2.2	1.1	-29%	32µM*	?
Cc1ccc(S(=O)(=O)N2CCOCC2)cc1NC(=O)COC(=O)Cc1cccs1	-5.5%	7%	-1.2	/	3%	/	-7.2%
COC(=O)c1nc(-c2ccc(C)cc2)oc1N(C)C	1.8%[38.3 µM]	-10%	-3.1	-1.5	-7%	-23%	2.9%
COc1cc([N+](=O)[O-])c(N2CCOCC2)c([N+](=O)[O-])c1OC	-1.4%	-14%	-1.9	0.5	9%[15.4 µM]	-17%	-5.8%
CCCn1c(SCC(=O)Nc2cc(Cl)ccc2Cl)n[nH]c1=O	-0.1%	-13%	1.8	-0.5	14%	4%	/
CC1CCc2nn(CC(=O)Nc3ccc(F)cc3F)cc2C1 (stereo not drawn)	7.0%	2%	-1.1	2.6	-19%	14%	-8.3%
Cc1nc(N2N=C(c3ccc(Cl)cc3)CC2c2ccco2)sc1C(=O)N(C)C (stereo not drawn)	3.7%	-8%	-2.3	-0.2	2%[15.4 µM]	25µM*	/

# Single entries from the entries so far.
# gsp ag, COc1cc([N+](=O)[O-])c(N2CCOCC2)c([N+](=O)[O-])c1OC is entered as 9%[15.4 µM]
# Menin MLL FP FL, CC(C)(C)N(Cc1ccccc1)C(=O)c1cc2ccccc2o1 is entered as 9.2

# New compounds follow
compound	PINK1 expr mod	gsp antag	D2 ag	Menin MLL FP FL	gsp ag	Sfp PPTase inh	ClpP mod
Cc1ccn2c(=O)c(C(=O)NCCCN3CCCC3=O)c(O)nc2c1	-0.5%	2%	1.9	-2.9	?	8%	3.9%
COC(=O)c1cc(OC)c(OC)cc1NC(=O)CCC1CCCC1	4.2%	-1%	-0.8	-0.4	?	-3%	32µM*
COc1ccc(N(CC(=O)NC2CCCC2)C(=O)CCC(=O)Nc2cc(C)on2)c(OC)c1	-1.2%	0%	-1.4	-1.6	-4%	18%	0.6%
CCn1c(=O)[nH]c2ccccc2c1=O	-0.6%	1%	-2.5	-4.2	?	9%	-12%
Clc1ccc2c(c1)-c1ccccc1C1=NCCN12	-2.3%	/	2.8	/	-14%	/	3.6%
Cc1cc(C)c(NC(=O)c2ccc3c(c2)NC(=O)C(C)S3)c(C)c1 (stereo not drawn)	3.3%	-10%	-0.5	/	0%	/	-0.2%
Cc1cccc2c1N(CCOc1ccccc1)C(=O)C2=O	5.1%	-1%	-16	1.5	-2%[15.4 µM]	3%	/
CCOC(=O)c1[nH]c2ccccc2c1N=C(C)N(CC)CC	-0.8%	4%	-1.5	4.0	9%	17%	0.0%
COc1cccc(CCc2nnc(CCC(=O)N3CCCC3c3nccs3)o2)c1 (stereo not drawn)	1.4%	-12%	-2.8	-10	3%	12%	-0.3%
COc1ccc(/C=N/Nc2ccc(C(=O)O)cc2)c(OC)c1OC	2.2%	?	9.0	-23	-32%[inhibitor]	13%	-3.8%
O=c1[nH]c(=O)n(Cc2ccco2)c2c1C(C(F)(F)F)(C(F)(F)F)N=C(c1ccc(F)cc1)N2	13µM*	?	-0.2	7.1	-6%	13%	?
O=C(CCc1nc2ccccc2[nH]1)N1CCN(C(=O)c2ccco2)CC1	2.8%	6%	-2.3	4.4	-22%	6%	0.7%
O=C(NCCCN1CCOCC1)c1ccc(Sc2ccc(Br)cc2)c([N+](=O)[O-])c1	0.3%	7%	-0.6	1.5	-9%[15.4 µM]	-8%	0.6%
O=C(NCc1ccccc1Cl)c1ccc2c(c1)SC1=NS(=O)(=O)CCN12	-0.8%	5%	-2.2	-1.8	-11%	-2%	-4.9%
Cc1ccc(CNC(=O)CCNS(=O)(=O)c2ccc3c(c2)c(=O)n(C)c(=O)n3C)cc1	-0.6%[38.3 µM]	1%	0.8	-0.7	-7%	11%	-7.5%
O=C(CSc1ncnc2nc[nH]c12)NCCc1ccccc1	-0.7%	4%	-2.4	-0.9	?	9%	0.1%
